TAR Tat displ – HIV-1 TAR-Tat binding disruption | HIV-1 TAR RNA, Tat peptide displacement FRET; active compounds read high | z-score (concentration not given with the values) | 100,000 compounds, 0.6% hits | AID 1259389;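 note: score is relative to mean and SD of negative controls; some compounds called inactive have numbers as strong as hits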
CDC25B-CDK2 inh – human CDC25B-CDK2/CyclinA binding inhibition; 94,000 compounds, 0.72% hits; HTRF CDC25B-CDK2/CyclinA binding, anti-His/anti-Flag; active compounds read high; z-score (concentration not given with the values);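 note: score is relative to mean and SD of negative controls; strong numbers were not always called active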
* hit, by the source's call; nt = no result given.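 Rule for the calls: active = z-score from 3 up in half or more of its runs; inactive = the rest.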

Screens in order: TAR Tat displ, CDC25B-CDK2 inh
CCn1c(SCC(=O)NCc2ccco2)nc2c(c1=O)SCC2
 : 2.06, -0.81
COc1ccc(CNc2c(S(=O)(=O)c3ccc(OC)cc3)cnc3ccc(F)cc23)cc1
 : 1.11, 2.57
CC(C)c1nn2c(=O)cc(COC(=O)C3CCCCC3)nc2s1
 : -0.27, nt
Cc1ccc(C2C=C(c3ccccc3)Nc3nc(NC(=O)c4ccco4)nn32)cc1 (stereo not drawn)
 : nt, -0.91
O=C(NCCCN1CCOCC1)C1CCCN(c2nc3cccnc3s2)C1 (stereo not drawn)
 : -0.1, nt
Cc1ccc2c(=O)cc(CSCc3ccco3)[nH]c2c1C
 : 0.91, nt
COc1cccc2cc(C(=O)Nc3cccc(C(C)=O)c3)c(=O)oc12
 : nt, -1.24
CN(C)CCN(C(=O)CCOc1ccccc1)c1nc2c(F)cc(F)cc2s1
 : 0.87, nt
O=C1[C@@H]2CSC(c3ccc(F)cc3)N2C(=O)N1c1ccc(Cl)cc1 (stereo partly drawn)
 : -0.75, -3.51
CC1CCCN(S(=O)(=O)c2ccc3[nH]c(=O)oc3c2)C1 (stereo not drawn)
 : nt, -1.42
CCOCCn1c(COc2ccc(OC)cc2)nc2ccccc21
 : 0.44, 0.07
CCOC(=O)c1ccc2c(c1)N(Cc1cc(=O)n3cc(Cl)ccc3n1)C(=O)c1ccccc1S2
 : 1.36, nt
O=C1C=CC2=C3c4cc(O)c(O)cc4CC3(O)COC2=C1O (stereo not drawn)
 : 19.6*, nt
COc1cc(OC)cc(-c2nc(-c3ccccc3)no2)c1
 : nt, 1.48
CC(=O)C(Sc1nnc(-c2c[nH]c3ccccc23)n1-c1ccc(F)cc1)C(=O)N(C)C (stereo not drawn)
 : nt, -1.04
COc1ccc(C2c3c(n(C)c4ccccc34)C(=O)N2CC(=O)O)cc1 (stereo not drawn)
 : -0.31, -1.37
CCn1ccc(C(=O)Nc2nccs2)n1
 : 3.67, -0.46
COc1ccc2cc3c(nc2c1)N(C(C)=O)CC3
 : 0.59, -1.56
O=C1c2cccnc2C(=O)N1Cc1ccc(S(=O)(=O)N2CCN(Cc3ccccc3)CC2)s1
 : -0.45, nt
COc1ccc(N2CCN(CCNC(=O)Nc3cc(Cl)c(OC)cc3OC)CC2)cc1
 : 0.08, -0.48
Cc1cc(NC(=O)c2ccc3c(=O)n4c(nc3c2)CCCCC4)no1
 : 0.35, -1.16
O=C(NCc1ccc2c(c1)OCO2)c1ccc2c(c1)N(Cc1ccccc1)CCS2
 : 0.24, -1.9
COc1ccc2oc3cc(C)nc(-c4ccccc4)c3c2c1
 : -1.04, -0.11
CC(C)c1cc2c(c(O)c1O)[C@@]13CCCC(C)(C)[C@@H]1C[C@@H]2OC3=O
 : 0.61, nt
Cc1[nH]c(=O)c(-c2ccccc2)c(O)c1C#N
 : nt, -4.05
Fc1ccc(C(c2nnc(-c3ccccc3)o2)N2CCc3ccccc3C2)cc1 (stereo not drawn)
 : 1.75, nt
CC(C)CCN(Cc1ccco1)C(=O)Nc1cn(CC(C)C)c(=O)c2ccccc12
 : 0.97, nt
CCCCOc1ccc(N2C(=O)C3CC(C)=C(C)CC3C2=O)cc1 (stereo not drawn)
 : 2.11, -2.06
O=C(c1cc(=O)c2ccccc2o1)N(Cc1ccc(F)cc1)C1CCS(=O)(=O)C1 (stereo not drawn)
 : 1.67, 1.1
CC(C(O)c1ccc(O)cc1)N1CCC(Cc2ccccc2)CC1 (stereo not drawn)
 : 0.37, -1.58
CC1CCN(c2ncnc3onc(-c4ccc(F)cc4)c23)CC1
 : -0.63, nt
CCCN1C(=O)C(O)(CC(=O)c2ccc(C)cc2)c2cc(Br)ccc21 (stereo not drawn)
 : nt, -1.38
C=CCN1C(=O)C(C(c2ccc(Cl)cc2)C2C(=O)NC(=S)N(CC=C)C2=O)C(=O)NC1=S (stereo not drawn)
 : nt, -1.13
Cc1nc2nc(C(F)(F)F)[nH]n2c(=O)c1Cc1ccc(C(C)C)cc1
 : 1.03, 0.22
COc1cc2[nH]cc(S(=O)(=O)c3ccc(C(C)C)cc3)c(=O)c2cc1OC
 : -0.23, 1.14
Cc1noc(C)c1CCNC(=O)c1ncoc1-c1cccs1
 : 0.82, nt
Cc1nc2nc[nH]n2c(=O)c1NC(=O)NC1CCCC1
 : 1.9, -1.79
N[C@@H](Cc1ccc(OC(F)(F)F)cc1)C(=O)O
 : nt, 0.08
CCN1CCCC1CNC(=O)Cn1c(=O)c(=O)n(CC)c2ncccc21 (stereo not drawn)
 : 0.86, nt
O=C(O)CSc1nnnn1-c1ccccc1
 : nt, -1.17
C=CCSc1nnc(NC(=O)c2nn(-c3ccccc3)ccc2=O)s1
 : -1.61, 0.69
Cc1c(C(=O)Nc2ccc3c(c2)OCCO3)sc2nc3n(c(=O)c12)N=C(c1ccccc1)CS3
 : 2.17, nt
CSc1ccc(C2C(C#N)=C(N)Oc3cc4c(cc32)OCO4)cc1 (stereo not drawn)
 : nt, -1.32
CC(C)CC(=O)Nc1ccc2c(c1)nc1n2CCN(C(C)C)C1
 : -3.81, -1.78
CCOC(=O)C1=C(c2ccccc2)Nc2ncnn2C1c1cccc(Br)c1 (stereo not drawn)
 : 2.72, 2.2
COc1ccc(/C=C/c2nc(C#N)c(NCCCn3ccnc3)o2)cc1OC
 : 2.21, -1.93
Cc1ccc(C2NC(=O)c3c(sc4c3CCN(C)C4)N2)cc1 (stereo not drawn)
 : -0.76, 1.67
O=C(Nc1ccccc1)Nc1ccccn1
 : nt, -0.43
CSc1ncc2c(=O)n(CC(=O)Nc3cccc(Cl)c3)cnc2n1
 : 0.27, nt
O=C(O)CCCc1nc(-c2ccccn2)no1
 : nt, -1.74

Other compounds
Screens in order: TAR Tat displ, CDC25B-CDK2 inh
CCCCCn1c(CN2CCc3ccccc3C2)nc2c1c(=O)n(C)c(=O)n2C
 : 1.2, 1.31
CCOc1ccc2nc(N3CCCC(C(=O)N4CCN(c5ncccn5)CC4)C3)sc2c1 (stereo not drawn)
 : -0.26, -0.26
CC1=C(C(=O)NCCCN2CCCC2=O)C2(CCN(S(=O)(=O)c3cccs3)CC2)OC1=O
 : -0.01, nt
O=C(NC1CCCC1)C1CCCN(S(=O)(=O)c2ccc3[nH]c(=O)oc3c2)C1 (stereo not drawn)
 : 1.13, nt
COC(=O)CN1C(=O)CSc2ccc(S(=O)(=O)N(C)Cc3ccco3)cc21
 : 0.87, nt
CC(=O)Oc1cc(OC(C)=O)c2c(c1)O[C@H](c1ccc(OC(C)=O)c(OC(C)=O)c1)[C@H](OC(C)=O)C2
 : 0.42, nt
O=C(NCC1CCCO1)c1ccc2c(c1)sc1nc(-c3ccccc3)cn12 (stereo not drawn)
 : 2.04, nt
CC1=C(C#N)C2(O)C(=O)c3ccccc3C2(O)N1 (stereo not drawn)
 : nt, -2.08
O=C(NCc1ccco1)C1=NS(=O)(=O)c2ccccc2N1
 : -0.62, nt
Cc1nn(CCCC(=O)NC2CCCCC2C)c(=O)c2cc3sccc3n12 (stereo not drawn)
 : -0.29, -0.06
CCCCNC(=O)c1nc2ncc(Br)cn2n1
 : nt, -1.46
CN1c2ccc(Cl)cc2-c2nc(SCC(=O)Nc3ccc(F)cc3F)ncc2S1(=O)=O
 : 0.19, nt
O=C(Nc1ccc(OC(=O)N2CCOCC2)cc1)N1CCOCC1
 : 1.7, -1.54
Cc1ccc(-n2nnc(-c3nc(-c4ccc(F)cc4)no3)c2N)cc1
 : 0.44, nt
O=S(=O)(NCc1ccc2c(c1)OCO2)c1cccc2nonc12
 : nt, 0.34
CCOC(=O)C1C(=O)NC(N2CCN(CC)CC2)=NC1c1ccco1 (stereo not drawn)
 : 0.3, 0.25
COc1ccc(C2CC(=O)NC3=C2C(=O)CC(c2ccccc2Cl)C3)c(OC)c1 (stereo not drawn)
 : 1.42, 1.46
Cc1ccc(C(=O)OCc2cc(=O)n3nc(C)sc3n2)cc1
 : -0.01, nt
O/N=C/c1c(-c2ccccc2Cl)[nH]c2ccccc12
 : nt, -1.78
NC(=S)N(C1=NCCCCC1)c1ccc(Br)cc1
 : nt, -1.09
c1ccc(-c2csc(-c3nc(-c4ccccc4)cs3)n2)cc1
 : 5.07, -0.14
Cc1ccccc1Nc1nc2ccccc2n2cnnc12
 : 0.34, -0.41
Fc1ccc(-c2cn3ccccc3n2)cc1
 : 1.19, 1.23
CCOC(=O)c1noc2nc(C)nc(Nc3cc(C)cc(C)c3)c12
 : -0.05, nt
Cn1ncc2c(Nc3ccccc3)nc(NCc3ccccc3Cl)nc21
 : 0.4, nt
Cc1nc(-c2ccc(S(=O)(=O)NCc3ccc(Br)cc3)cc2)co1
 : -0.22, nt
CN(CC(=O)NCCCN1CCc2ccccc2C1)c1nnc(N2CCCC2=O)s1
 : 0.34, nt
Cn1c(-c2ccc(Cl)cc2)cnc1S(=O)(=O)Cc1ccc(F)cc1
 : 2.48, nt
COc1ccc(NC(=O)CS(=O)(=O)c2ccc3c(c2)n(C)c(=O)n3C)cc1
 : 0.21, -1.6
CCN(CC)CCNC(=O)c1ccc2c(=O)[nH]c3c(C(=O)NC(C)C)sc(=S)n3c2c1
 : 6.41*, nt
CNc1nc(N(C)Cc2ccccc2)nc(N)c1[N+](=O)[O-]
 : 1.36, nt
Cc1cc(C)n(-c2ncnc(Cl)c2N)n1
 : -1.03, -1.06
O=C(c1cccs1)N1CCCc2cc(NS(=O)(=O)c3cccs3)ccc21
 : 2.18, nt
CC(C)(C)NC(=O)c1oc2ccccc2c1NC(=O)C1CCCC1
 : -0.34, nt
Cc1cc(-c2ccccc2Cl)oc1-c1nn2c(-c3ccoc3C)nnc2s1
 : 1.22, 2.37
COC(=O)CNC(=O)N1CCn2cccc2C1C (stereo not drawn)
 : -0.56, nt
COc1cc(S(=O)(=O)N2CCN(Cc3ccc4c(c3)OCO4)CC2)ccc1Cl
 : 1.78, 0.8
O=C(NCc1ccccn1)c1sc(=S)n2c1[nH]c(=O)c1ccccc12
 : 1.81, nt
O=C(Nc1ccc(Cl)cc1)c1noc2c1CCCC2
 : 0.47, nt
Cc1cc(C)c(S(=O)(=O)Nc2cccc(N3CCCS3(=O)=O)c2)c(C)c1
 : -0.39, nt
O=C1CCCN1c1ccc(S(=O)(=O)N2CCCC2)cc1
 : -0.44, nt
O=C1CSc2ccc(C(=O)N3CCCCC3)cc2N1
 : 0.59, nt
O=C(CCC1CCCC1)Nc1cccc(-c2cn3cccnc3n2)c1
 : nt, -0.49
O=C(C1CCC(CNS(=O)(=O)c2cccc3cccnc23)CC1)N1CCCC1 (stereo not drawn)
 : 0.64, -1.24
O=C(O)c1ccccc1C(=O)Nc1ccc2c(c1)C(=O)c1ccccc1C2=O
 : nt, 7.78*
CSc1cccc(N2C(=O)N(Cc3ccc(F)cc3)c3ccccc3S2(=O)=O)c1
 : 0.99, nt
Cc1nn(C(=O)c2ccco2)c(C)c1Sc1ccccc1
 : -1.61, -0.06
CC1(C)CCc2cc(-c3ccn[nH]3)ccc2O1
 : nt, -1.33
COc1cc(-c2n[nH]c(=S)n2CCc2ccccc2)cc(OC)c1OC
 : nt, -0.1
CC(C)c1nnc(NC(=O)CSc2nccn2C)s1
 : 0.8, -0.73

(more compounds)
Screens in order: TAR Tat displ, CDC25B-CDK2 inh
Cc1c(C(=O)N2CCC(C)CC2)c(S(=O)(=O)N2CCN(c3ncccn3)CC2)c(C)n1C
 : 2.03, nt
CCOC(=O)C1=C(c2ccccc2)Nc2nc3ccccc3n2C1c1ccccc1 (stereo not drawn)
 : -0.04, -1.81
O=C(CN1C(=O)c2cccc([N+](=O)[O-])c2C1=O)Nc1nc(-c2ccccc2)cs1
 : nt, -2.57
CCCn1ccc2cc(S(=O)(=O)N3CCN(S(=O)(=O)Cc4ccccc4)CC3)ccc21
 : 2.37, nt
CC(C(=O)N1CCN(c2ccccn2)CC1)n1sc2ccccc2c1=O (stereo not drawn)
 : 1.96, -3.23
COCCNc1ncnc2c1cnn2C
 : 1.57, nt
Nc1nc(-c2ccc(F)cc2)nn1C(=O)c1ccc(F)cc1
 : 0.44, -0.42
CC(C)NC(=O)C(=O)NCCCN1CCOCC1
 : -2.04, -1.08
CC1=C(c2cccc(Br)c2)S(=O)(=O)N=C1Nc1ccc(F)cc1
 : 0.9, -1.73
Cc1[nH]c2ccccc2c1C1(O)C(=O)N(Cc2ccccc2)c2ccc(Br)cc21 (stereo not drawn)
 : -1.62, 1.68
COc1ccc(OC)c(C2Oc3c(OC)cccc3C3CC(c4ccccc4O)=NN32)c1 (stereo not drawn)
 : 1.64, -0.78
CS/C(=C(/C#N)S(=O)(=O)c1ccc(Cl)cc1)N1CCOCC1
 : nt, -1.59
O=C1CC(c2ccccc2)CN1C(=O)c1ccccc1Cl (stereo not drawn)
 : 1.85, -2.25

Source: PubChem
